Source: PubChem BioAssay (several laboratories)
UCH37 inh – inhibitors of human UCH37 deubiquitinase, primary screen, biochemical, Ub-AMC cleavage, fluorescence | Ubiquitin carboxyl-terminal hydrolase isozyme L5 (Homo sapiens), Q9Y5K5 | purified proteasome/UCH37 | inhibition, % (no concentration beside the values) | 0.33% of 330,000 active | AID 588478, 2011;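 active = mean of two replicates above 20%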;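 also: 0% = compound-free wells with enzyme and 100% = wells lacking proteasome; stock transfer was 100 nL into about 20 µL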
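Reagent: Ub-AMC substrate; assay system: Proteasome-associated human UCH37 deubiquitinase; controls: no-proteasome and no-compound wells; read-out: % inhibition of Ub-AMC cleavage fluorescence; timing: 30 min preincubation with enzyme, 25 min cleavage at room temperature; signal: AMC fluorescence from Ub-AMC cleavage, excitation 355 nm, emission 460 nm; buffer or medium: Tris-HCl pH 7.4 plus ovalbumin, ATP-MgCl2, DTT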
ALR inh – inhibitors of human ALR sulfhydryl oxidase, primary screen, biochemical, H2O2 detection, HRP-luminol luminescence, single point | FAD-linked sulfhydryl oxidase ALR (Homo sapiens), P55789 | purified ALR, DTT oxidation | inhibition, % (no concentration beside the values) | 3.8% of 290,000 active;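 active = mean and each replicate at 75% or more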;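 also: stock transfer was 7.5 nL into about 7.5 µL; 0% = neutral wells and 100% = wells with inactivated enzyme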
HNF4A DNA FP – change in binding of human HNF4A to DNA, primary screen, biochemical, fluorescence polarization, FITC-DNA; 1 h; activity change, % at 10 µM; 0.3% of 360,000 active; AID 1224865, 2016; in the data active = activity change above about 30%, passing the limit was not always enough;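 also: controls were the assay level and a saturating level of protein; the project sought stronger binding though the title names inhibitors; some compounds called inactive have numbers as strong as hits; positive values seem to mean higher polarization but the record does not say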
Target sequence (P41235 whole entry, looked up): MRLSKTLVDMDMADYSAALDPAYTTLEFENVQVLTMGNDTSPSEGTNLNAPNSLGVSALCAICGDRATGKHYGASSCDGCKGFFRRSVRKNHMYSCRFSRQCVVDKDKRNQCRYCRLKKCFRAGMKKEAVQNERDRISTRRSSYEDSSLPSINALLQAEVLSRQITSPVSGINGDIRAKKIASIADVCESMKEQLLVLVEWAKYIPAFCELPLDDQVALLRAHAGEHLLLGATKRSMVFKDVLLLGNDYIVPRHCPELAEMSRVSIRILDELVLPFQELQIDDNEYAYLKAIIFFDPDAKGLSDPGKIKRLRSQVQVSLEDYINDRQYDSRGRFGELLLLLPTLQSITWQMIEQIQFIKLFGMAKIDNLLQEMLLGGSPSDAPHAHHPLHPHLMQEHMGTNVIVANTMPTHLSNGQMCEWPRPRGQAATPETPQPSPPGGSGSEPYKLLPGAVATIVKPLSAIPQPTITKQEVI
LANA-H2A inh – blockers of LANA interaction with H2A/H2B – biochemical, FP readout, HTS, primary screen | cell-free LANA-H2A/H2B peptide, fluorescence polarization | AID 2629, 2010 | inhibition, % (concentration not given with the values) | 0.6% of 320,000 active | Protein LANA1 (Human herpesvirus 8 type P (isolate GK18)), Q9QR71; in the data active = inhibition mostly above about 10%, no sharp cut-off; inactive = mostly below about 6.7%;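 also: stock transfer was 7.5 nL into about 10 µL; 0% = median of vehicle wells and 100% = median of positive control wells; one replicate is shown; the record names a cut of 25% in any replicate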
FGF22 binding – binders of human FGF22 protein, primary screen, FGF22 synaptogenesis inhibitor project, biophysical, thermal shift, single point; AID 651658, 2012; recombinant FGF22 thermal shift, SYPRO orange fluorescence; percent of sucrose octasulfate shift, DMSO zero; 1.5% of 340,000 active; calls only at 9.99 µM;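 active = melting point raised past a set limit in the mean and every replicate; three in four hits are not shown here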
Target sequence (Q9HCT0 whole entry, looked up): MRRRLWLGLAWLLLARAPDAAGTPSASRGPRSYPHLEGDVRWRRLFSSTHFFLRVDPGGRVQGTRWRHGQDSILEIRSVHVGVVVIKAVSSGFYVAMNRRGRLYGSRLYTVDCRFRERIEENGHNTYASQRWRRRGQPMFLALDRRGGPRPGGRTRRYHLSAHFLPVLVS
Beta2AR agonist – beta2AR agonists driving receptor internalization, primary screen, cell-based, FAP fluorogen, flow cytometry; response, % (test concentration not listed); AID 504454, 2011; 0.43% of 340,000 active; Am2.2-beta2AR cells; reference of the scale not given here; Beta-2 adrenergic receptor (Homo sapiens), P07550;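 active = response above a set limit, near 3 SD of response in nonfluorescent compounds, cut at about 42% in these data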;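 also: stock transfer was 100 nL into about 11 µL; a reference agonist was the positive control; negative values mostly stem from fluorescent compounds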
Target sequence (P07550 whole entry, looked up): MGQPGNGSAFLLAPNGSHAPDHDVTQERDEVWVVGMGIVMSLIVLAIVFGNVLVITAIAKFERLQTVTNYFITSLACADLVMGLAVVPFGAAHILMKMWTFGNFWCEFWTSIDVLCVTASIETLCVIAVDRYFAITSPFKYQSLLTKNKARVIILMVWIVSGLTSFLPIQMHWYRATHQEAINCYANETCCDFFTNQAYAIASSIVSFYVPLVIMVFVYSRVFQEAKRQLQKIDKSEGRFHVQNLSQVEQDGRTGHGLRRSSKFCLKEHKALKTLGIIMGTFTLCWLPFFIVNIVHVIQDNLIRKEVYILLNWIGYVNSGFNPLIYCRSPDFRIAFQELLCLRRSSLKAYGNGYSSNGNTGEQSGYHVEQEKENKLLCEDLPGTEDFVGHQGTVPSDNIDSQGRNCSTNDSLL
E coli growth – E. coli growth inhibition, primary screen, OD600. Escherichia coli growth, 23 h; hits give low values. OD600 absorbance (test concentration not listed). 0.21% of 330,000 active;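 active = OD600 absorbance below the run mean of sample wells minus 3.6 SD, in any replicate, cut at about 0.56 in these data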;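 also: stock transfer was 300 nL into about 60 µL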
An asterisk follows results filed as active; i = inactive; . = no result given.

SMILES,UCH37 inh,ALR inh,HNF4A DNA FP,LANA-H2A inh,FGF22 binding,Beta2AR agonist,E coli growth
O=C(Nc1ccc(F)cc1)OC1CN2CCC1CC2 (stereo not given),3.8,5,-2.7,2.5,i,3,0.66
C[C@]12CC[C@@H](O)CC1=CCC1C2CC[C@]2(C)C(=O)[C@H](F)CC12 (stereo not given in full),0.7,-1,-2.0,0.1,i,-1,0.68
CCOC(=O)c1nsnc1NCCCl,-96,-6,6.7,1.9,.,-1,0.7
Cc1cc(NC(=O)CCl)nn1C,4.2,-6,-4.2,-2.5,i,0,0.69
COc1ccc(-n2c(/C=C/c3ccc4c(c3)OCO4)nc3ccccc3c2=O)cc1,-9.5,-9,1.0,7.9,i,1,0.78
CN1CCN(C(=O)O[C@H]2c3nccnc3C(=O)N2c2ccc(Cl)cn2)CC1,1.0,.,-4.2,-1.0,i,-4,0.65
O=c1[nH]c(O)c(C=Nc2ccccc2Sc2ccccc2)c(=O)[nH]1,1.2,2,0.9,4.8,i,3,0.68
CCOC(=O)C1CCN(/C=C2/C(=O)NC(=S)N(c3ccccc3F)C2=O)CC1,2.7,-2,-0.7,0.3,i,-1,0.71
COc1ccccc1N1CCN(C2CCCN(C(=O)COc3ccccc3Cl)C2)CC1 (stereo not given),.,.,-0.1,.,i,4,.
c1ccc(CNCCc2ccc3c(c2)OCO3)nc1,3.9,-12,-2.3,1.1,i,1,0.7
Cc1ccc(-c2nc3ccccc3c(=O)n2-c2cccc(C)n2)cc1,-1.6,1,-2.3,1.6,i,-8,0.72
CC(C)c1ccc(NC(=O)N2C[C@H]3C[C@@H](C2)c2cccc(=O)n2C3)cc1,-2.7,3,2.1,0.3,i,-2,0.78
C=Cn1c(P(=S)(N2CCOCC2)N2CCOCC2)cc2c1CCCC2,2.1,-8,-0.1,-0.8,.,0,0.62
CCOc1nc(NC(C)C)nc(N2CC3CC(C2)c2cccc(=O)n2C3)n1 (stereo not given),1.2,0,-0.8,-1.0,i,-1,0.65
CCOC(=O)C1(CCCc2ccccc2)CCN(C2CCCC2)CC1,-0.3,1,-1.3,2.4,i,7,0.63
N=c1c[n+](CC23CC4CC(CC(C4)C2)C3)[n-]o1,1.8,-27,-1.5,2.5,.,3,0.72
Cc1ccc2c(c1)c(=O)c1c3n2CCN(CC#N)C3CC1 (stereo not given),1.4,-25,3.1,-8.2,i,-2,0.69
CCN(CC)S(=O)(=O)c1ccc(C(=O)NC2CN3CCC2CC3)cc1 (stereo not given),1.6,.,2.1,-5.6,i,6,0.69
Ic1ccccc1CN[C@@H]1C2CCN(CC2)[C@@H]1C(c1ccccc1)c1ccccc1,-0.9,.,1.3,.,i,41,.
O=[N+]([O-])c1ccc(C2C3C(c4ccccc4)=NC4(CCCC4)N32)cc1 (stereo not given),-0.3,8,-3.6,-8.2,i,-18,0.69
CN1CC(C(=O)c2cccs2)C(c2ccc(Cl)cc2)C1 (stereo not given),1.3,-1,5.0,3.6,i,-3,0.64
O=C1NC(=O)C(CCc2ccncc2)(CCc2ccncc2)C(=O)N1C1CCCCC1,1.3,11,-0.5,-2.3,i,-3,0.71
CCC1CN1P(=S)(N1CC1CC)N1CC1CC (stereo not given),-0.5,.,0.5,.,i,1,0.61
O=[N+]([O-])NC1=NCCN1Cc1ccc(Cl)nc1,0.2,-4,0.2,-8.2,i,-1,0.67
Cc1cc2c(s1)NC(=O)CN=C2c1cccs1,2.2,6,1.4,-0.8,.,6,0.66
CN1CCc2nc3ccc(F)cc3c(C(N)=O)c2C1,2.6,-15,-1.4,-0.4,.,-2,0.69
Cc1nn(Cc2ccccc2)c(C)c1C(=O)OCC(=O)NCc1ccco1,4.3,-5,-3.4,5.2,.,-1,0.7
O=C(c1ccc(Cl)cc1)C1CCCN(Cc2ccon2)C1 (stereo not given),3.5,-4,-1.5,-1.8,i,4,0.67
Oc1c(Br)cc(Br)cc1CN1CCN(Cc2ccccc2)CC1,1.7,4,2.9,-6.6,.,7,0.71
COC(=O)CC1=C(C(=O)OC)C2(C(=O)Nc3c(C)cccc32)C(C#N)=C(N)O1 (stereo not given),5.2,0,1.0,2.9,.,-12,0.65
O=[N+]([O-])c1cccc(CN2CCN(Cc3ccc(Cl)cc3)CC2)c1,0.6,0,5.5,2.6,i,3,0.7
CC(O)CNc1ccc([N+](=O)[O-])c2cccnc12 (stereo not given),16,-13,5.5,3.4,.,-3,0.64
CC(C)(C)c1nc(N2CCN(C(=O)c3ccco3)CC2)c2nnn(Cc3ccccc3Cl)c2n1,5.0,.,2.0,-5.6,i,1,0.65
C=CCn1c(O)c(C(C)=NCCN2CCN(C(=S)NC)CC2)c(=O)[nH]c1=O,1.8,-5,2.9,1.0,i,0,0.68
CN1CCN(Cc2cn(C)c3ccccc23)CC1CCO (stereo not given),0.2,.,1.2,8.5,i,-1,0.69
O=C(Nc1ccc(OC(=O)N2CCCC2)cc1)N1CCOCC1,2.1,-8,1.1,4.2,i,0,0.7
Nc1nnc(P(c2ccccc2)c2ccccc2)s1,4.5,-5,-1.2,2.6,i,4,0.63
O=C1NC(=O)C(=Cc2csc3ccccc23)C(=O)N1,.,-7,1.9,-0.9,i,24,.
OC(CN1CCCCC1)c1c[nH]c2ccccc12 (stereo not given),2.6,10,-0.2,3.5,i,9,0.67
CN1C(=O)C(Cc2cccs2)C(=O)N(C)C1=O,-1.4,10,-2.2,-3.3,i,7,0.7
C=CCn1c(O)c(C(CC)=NCc2cc(OC)cc(OC)c2)c(=O)[nH]c1=O,-1.6,-22,0.4,0.7,.,-2,0.71
Cc1cccc(NC(=O)[C@@H](NC(=O)N2C[C@H]3C[C@@H](C2)c2cccc(=O)n2C3)C(C)C)c1,0.2,.,-0.2,3.0,i,4,0.75
COc1ccc(-n2c(O)c(C(C)=NCc3ccc4c(c3)OCO4)c(=O)[nH]c2=O)cc1,4.6,-5,1.9,1.8,i,9,0.69
CC(C)c1oc(=O)cc2c1[C@@H](O)[C@H]1OC(=O)[C@@]3(C)C[C@@H](O)[C@@H](O)[C@@]2(C)C13 (stereo not given in full),3.3,-12,0.3,8.5,i,75*,.
COc1cc(C(=O)O)cc(OC)c1OC,.,.,-0.8,.,i,-1,.

Not a retest: entries from further up.
SMILES,UCH37 inh,ALR inh,HNF4A DNA FP,LANA-H2A inh,FGF22 binding,Beta2AR agonist,E coli growth
CC(C)c1oc(=O)cc2c1[C@@H](O)[C@H]1OC(=O)[C@@]3(C)C[C@@H](O)[C@@H](O)[C@@]2(C)C13 (stereo not given in full),3.3,-12,0.3,8.5,i,75*,.
COc1cc(C(=O)O)cc(OC)c1OC,.,.,-0.8,.,i,-1,.

Following part
SMILES,UCH37 inh,ALR inh,HNF4A DNA FP,LANA-H2A inh,FGF22 binding,Beta2AR agonist,E coli growth
CCN1CC2(COC(=O)c3ccccc3N)CCC(OC)C34C5CC6C(OC)CC(O)(C5C6OC)C(O)(C(OC)C23)C14 (stereo not given),-143,-6,-0.2,8.2,.,0,0.66
COC(=O)C1=C(c2ccccc2OCc2ccccc2)C[C@@H]2CC[C@H]1N2C(=O)NCc1ccc(Cl)cc1,1.0,-1,0.4,-1.5,i,2,.
Cc1nccc2c1[nH]c1ccc(Br)cc12,4.5,-6,1.5,0.1,i,18,0.58
CCC(=NCCCN(CC)CC)c1c(O)n(-c2ccccc2)c(=O)[nH]c1=O,4.0,1,-2.6,0.7,.,5,0.67
CCC(=NCCc1ccccc1)c1c(O)n(C2CCCCC2)c(=O)[nH]c1=O,2.1,-7,3.1,6.1,.,9,0.71
COc1ccc(C2=NCC(=O)N(CC(=O)NCc3ccco3)c3sc4c(c32)CCCC4)cc1OC,2.3,-10,5.8,3.2,.,-14,0.66
CCCc1cc(=O)oc2cc(OCC(=O)N3CCN(Cc4ccc5c(c4)OCO5)CC3)ccc12,-21,-4,-4.1,8.8,i,-15,0.66
O=C(C1CC(=O)N(C2CCCCCCC2)C1)N1CCC2(CC1)OCCO2 (stereo not given),0.7,0,0.3,-0.4,.,8,0.67
COC(=O)CC1NC2CCCCC2NC1=O (stereo not given),3.5,-1,0.8,-1.3,.,9,0.75
CCCOc1ccc(C(C)=O)cc1Cc1c(O)[nH]c(=S)[nH]c1=O,5.1,24,-1.2,16*,i,-5,0.67
CC/C(=N\N1CCCCC1)c1c(O)[nH]c(=O)[nH]c1=O,0.5,.,-1.6,-4.0,i,-4,0.71
OC1/C(=C/c2ccc(C(F)(F)F)cc2)N2CCC1CC2 (stereo not given),3.0,-2,-2.2,-1.8,i,2,0.7
COc1ccc(CCNC(=O)c2c(N)n(CCN3CCOCC3)c3nc4ccccc4nc23)cc1OC,-113,-5,1.0,-0.2,.,7,0.67
O=c1[nH]c(=S)n(C2CC2)c(O)c1C=NCc1cccnc1,11,9,.,7.6,.,.,0.66
Cc1nc2cc(C(=O)N3CCC4(CC3)OCCO4)ccc2n1-c1cccc(F)c1,1.6,.,-2.5,.,.,1,0.7

Record cards, from the list above. Order of screens: UCH37 inh, ALR inh, HNF4A DNA FP, LANA-H2A inh, FGF22 binding, Beta2AR agonist, E coli growth
CCC(=NCCc1ccccc1)c1c(O)n(C2CCCCC2)c(=O)[nH]c1=O in the list: 2.1, -7, 3.1, 6.1, ., 9, 0.71
COc1ccc(CCNC(=O)c2c(N)n(CCN3CCOCC3)c3nc4ccccc4nc23)cc1OC in the list: -113, -5, 1.0, -0.2, ., 7, 0.67

Later entries.
SMILES,UCH37 inh,ALR inh,HNF4A DNA FP,LANA-H2A inh,FGF22 binding,Beta2AR agonist,E coli growth
CC1CN=C(Nc2ccc(F)cc2)S1 (stereo not given),0.4,0,-1.8,0.2,i,-1,0.67
CCOC(=O)c1c(-n2c(C)cc(C=C3C(=O)NC(=O)NC3=O)c2C)sc2c1CCCC2,-64,-6,-1.2,10,.,12,0.71
OCC1CN1C1CCCCC1 (stereo not given),0.6,.,2.4,.,i,0,0.69
CCN1CCN(C(=O)COc2cc(=O)n(CC)c3ccccc23)CC1,-0.3,3,0.1,1.0,.,-4,0.61
C/C=C1/CC(C)C(C)(O)C(=O)OCC2CCN3CCC(OC1=O)C23 (stereo not given),-15,.,0.2,-1.8,i,1,0.7
CN1CCN(c2ccc([N+](=O)[O-])c3cccnc23)CC1,2.8,-18,0.1,-4.2,.,-2,0.67
C#CCN1CCN(c2cccc(C(F)(F)F)c2)CC1,4.7,.,-1.3,.,i,0,0.73
COP(=O)(OC)C(NC(=O)/C=C/c1ccccc1)C(Cl)(Cl)Cl (stereo not given),-0.8,-10,-4.9,-0.6,i,0,.
Cc1c(NS(=O)(=O)c2ccccc2)ccc([N+](=O)[O-])c1Cl,9.2,.,2.2,.,.,12,0.61
C=C1C(=O)O[C@@H]2C[C@@H](C)[C@@H]3C=CC(=O)[C@@]3(C)[C@@H](OC(=O)CC(=O)O[C@H]3[C@@H]4C(=C)C(=O)O[C@@H]4C[C@@H](C)[C@@H]4C=CC(=O)[C@]43C)[C@H]12,5.9,6,-25,2.1,i,48*,.
Cn1c(O)c(C=NCCN2CCN(C(=O)Nc3ccccc3)CC2)c(=O)n(C)c1=O,3.2,-1,3.4,-3.2,i,-6,0.66
CC(=O)O[C@@H]1CC[C@]2(C)C3CC[C@]4(C)C(=O)[C@H](O)CC4C3[C@@H](OC(C)=O)C[C@H]2C1 (stereo not given in full),2.6,-1,-2.2,-2.8,i,-3,0.71

Only part of the results is shown. The share of hits here may be higher or lower than overall.
